Assay outcomes as filed in PubChem BioAssay.
ugtP null kill – kills S. aureus RN4220 lacking UgtP; S. aureus RN4220 ugtP deletion, OD600 growth, 16 h; some inactives read as strong as hits; growth inhibition, % (concentration not given with the values); 330,000 compounds, 0.54% hits;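 active = z-score under -3 and OD600 up to 0.15 on both plates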;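 note: plate controls were untreated wells for no effect and antibiotic for full effect; wells of about 80 µL received 100 nL stock; the first replicate is given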
BJeLR lethal – BJeLR cell viability loss. BJeLR (HRASV12) viability, CellTiter-Glo ATP luminescence, 48 h; reference of the scale not given here. inhibition, % (no concentration beside the values). 300,000 compounds, 0.17% hits. AID 1554;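 active = replicate mean above 50%; inconclusive = above 50% but judged a plate artefact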;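 note: 50 nL library stock added to about 25 µL; numbers are from one replicate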
PrP UTR inh – inhibition of PrP 5' UTR reporter expression; AID 488862; 340,000 compounds, 0.35% hits; inhibition, % (test concentration not listed); cell-based PrP 5' UTR mRNA reporter, plate reader;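 active = every replicate at 50% or more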;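 note: 0 = median of the neutral control wells; tested in H4 reporter cells; numbers are from one replicate; inactives centre near -14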
Mtb hypoxia inh – Mtb hypoxia fluorescent reporter inhibition; M. tuberculosis hypoxia-regulated fluorescent reporter, fluorescence; fluorescence inhibition, % (test concentration not listed); 300,000 compounds, 0.1% hits; AID 1159583;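 active = 35 to 45% if threefold the growth effect, above 45% if 1.5-fold the growth effect; inactive = the rest, general growth blockers included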;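 note: wells of about 50 µL received 100 nL stock; 0% = vehicle wells and 100% = reference inhibitor wells; whole bacteria with a GFP reporter of the hypoxia response; strong numbers were not always called active; many hits fall short of the cut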
RN4220 kill – S. aureus RN4220 growth inhibition. OD600, 16 h. inhibition, % (concentration not given with the values). 330,000 compounds, 0.33% hits;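 active = z-score of -3 or lower and OD600 up to 0.18 on both plates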;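 note: plate controls were untreated cells for no effect and reference antibiotic for full effect; stock transfer was 100 nL into about 80 µL; one replicate is shown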
Bead autofluor – compound fluorescence in toxin protease inhibitor counterscreen. compound autofluorescence counterscreen, microsphere flow cytometry; hits give high values. fluorescence intensity (test concentration not listed). 360,000 compounds, 3.1% hits. AID 624483;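 active = at least 3 SD above the mean of all compounds, about 16000 in these data; inconclusive = too few beads counted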;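 note: 100 nL of 1 mM stock went into each well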
Mtb hypoxia inh growth – recorded beside Mtb hypoxia inh, whose call it bears; growth inhibition, %; measured here: M. tuberculosis growth (absorbance);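 0% = vehicle and 100% = reference antibiotic; read after six days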
The depositor's hits bear a star; ? = inconclusive; . = not tested or not shown.

SMILES | ugtP null kill | BJeLR lethal | PrP UTR inh | Mtb hypoxia inh | Mtb hypoxia inh growth | RN4220 kill | Bead autofluor
COC(=O)c1cc(C)sc1NC(=O)C1CC=CCC1C(=O)O (configuration not stated) | -5 | -7 | . | 3 | -4 | 4.9 | 11265
O=C(OCc1c(Cl)cccc1Cl)c1ccccn1 | -1 | -3 | -22 | 9 | 5 | -8.8 | 2834
COc1cc(/C=N/NC(=S)NC2CC3CCC2C3)ccc1O (configuration not stated) | . | -2 | -28 | . | . | . | 4386
CN1C(=O)CSc2ccc(NC(=O)NCc3ccc(F)cc3)cc21 | 0 | 3 | 11 | 0 | 3 | 4.3 | 2053
COc1ccc(-c2csc(NC(=O)CSCC(=O)Nc3cc(C)on3)n2)cc1OC | 17 | -7 | -18 | -7 | 3 | -5.6 | 4855
CCOC(=O)/C(=C/Nc1ccc(F)c(F)c1)[N+](=O)[O-] | 3 | -7 | -4 | 12 | 2 | 2.5 | 4151
COCCNC(=O)c1ccc(-n2c(SCc3cc(F)ccc3F)nc3ccccc3c2=O)cc1 | 16 | -2 | -1 | 10 | 6 | 5.5 | 2115
CC(/C=C1\SC(=S)N(CCC(=O)Nc2cccc(C(=O)O)c2)C1=O)=C\c1ccccc1 | 86* | 2 | -11 | 1 | -6 | 78 | 3893
NC(=O)c1cc2ccccc2o/c1=N/NC(=O)c1ccccc1 | . | -1 | -45 | . | . | . | 3795
O=C(CNC(=O)c1ccco1)NCC(c1ccco1)N1CCCCC1 (configuration not stated) | 7 | . | -20 | 9 | 4 | 6.7 | 3460
O=S(=O)(c1cccs1)n1cccn1 | -9 | -13 | -2 | 6 | 10 | -1.7 | 3505
COc1ccc(-c2cc([C@H]3[C@@H]4C=CCC[C@@]4(C)C(=O)N3Cc3ccccc3)ccc2F)cc1 | . | -7 | -1 | . | . | . | 3119

Look-ups from above.
CCOC(=O)/C(=C/Nc1ccc(F)c(F)c1)[N+](=O)[O-] | Mtb hypoxia inh: 12
COC(=O)c1cc(C)sc1NC(=O)C1CC=CCC1C(=O)O (configuration not stated) | Mtb hypoxia inh growth: -4
COc1cc(/C=N/NC(=S)NC2CC3CCC2C3)ccc1O (configuration not stated) | PrP UTR inh: -28
O=C(CNC(=O)c1ccco1)NCC(c1ccco1)N1CCCCC1 (configuration not stated) | ugtP null kill: 7

Reprinted at random: 2 compounds from above.
SMILES | ugtP null kill | BJeLR lethal | PrP UTR inh | Mtb hypoxia inh | Mtb hypoxia inh growth | RN4220 kill | Bead autofluor
CC(/C=C1\SC(=S)N(CCC(=O)Nc2cccc(C(=O)O)c2)C1=O)=C\c1ccccc1 | 86* | 2 | -11 | 1 | -6 | 78 | 3893
COC(=O)c1cc(C)sc1NC(=O)C1CC=CCC1C(=O)O (configuration not stated) | -5 | -7 | . | 3 | -4 | 4.9 | 11265

Other structures:
SMILES | ugtP null kill | BJeLR lethal | PrP UTR inh | Mtb hypoxia inh | Mtb hypoxia inh growth | RN4220 kill | Bead autofluor
O=C(COC(=O)Cc1cccc2ccccc12)Nc1ccccc1-c1ccccc1 | 0 | -4 | -7 | -3 | 6 | 17 | 2615
c1ccc(-c2nc3ccccc3c3nc4ccccc4n23)cc1 | 1 | -3 | -42 | 1 | 1 | -0.3 | 2603
Cc1onc(-c2c(F)cccc2Cl)c1C(=O)NC1C(=O)N2C1SC(C)(C)C2C(=O)O (configuration not stated) | 100* | . | . | 24 | 30 | 100* | .
CCOc1ccc(-n2c(=O)c3sccc3n(Cc3cccc([N+](=O)[O-])c3)c2=O)cc1 | 5 | -12 | -12 | 8 | 0 | 1.3 | 6077
CCc1cccc(NC(=O)Cn2c(=O)n(CCC(=O)NCC3CCCO3)c(=O)c3cc(OC)c(OC)cc32)c1 (configuration not stated) | 10 | -12 | -2 | -2 | -14 | 1.7 | 6114
CC(NC(=O)Cc1cccs1)C(c1cccs1)N1CCN(c2ccccc2)CC1 (configuration not stated) | 3 | -5 | -9 | 10 | 3 | 2.4 | 5989
O=C(NC1CC1)c1cc(=O)c2ccccc2o1 | 3 | -2 | -28 | . | . | 1.0 | 3762
O=C(CCCn1c(=O)c2cccn2c2cccnc21)N1CCN(c2ccccc2F)CC1 | 4 | -6 | -18 | 7 | -3 | -0.7 | 6138
Cn1ncc(Cl)c1C(=O)N1CCN(c2ncccn2)CC1 | 1 | 12 | -9 | -4 | -11 | -0.5 | 2592
CCOC(=O)N1CCC(Nc2c(Nc3ccc(F)cc3)c(=O)c2=O)CC1 | 1 | -11 | -16 | 12 | 15 | 5.8 | 3871
Cc1c(NC(=O)c2ccc3c(c2)C(=O)N(CC2CCCO2)C3=O)cccc1C(=O)O (configuration not stated) | . | -3 | -12 | . | . | . | 2709
COc1cc(F)ccc1S(=O)(=O)NCc1cccnc1 | 4 | -8 | -10 | -1 | 8 | 1.8 | 3961
CCN(Cc1ccccc1)C(c1ccc(C(F)(F)F)cc1)c1nnnn1C(C)(C)C (configuration not stated) | -16 | 5 | -1 | 1 | -2 | 3.4 | 3095
O=C(c1ccco1)N1CCN(c2ncnc3c2oc2ccccc23)CC1 | -6 | -8 | -36 | . | . | 2.5 | 3526
O=C(NCc1ccccn1)c1cc(-c2ccccc2Cl)nc2ccccc12 | 3 | -3 | -11 | 5 | 14 | 3.0 | 7822
COc1ccc(Nc2nc(N)nc(CN3CCC(C)CC3)n2)cc1 | 2 | 2 | -14 | 4 | 4 | 1.1 | 5583
CCOC(=O)/C(C#N)=C/c1cn(CCC(=O)O)nc1-c1cccc(Br)c1 | 26 | -4 | -8 | 1 | 2 | 8.0 | 4376
CC(=O)Nc1ccc(-c2csc(NCc3ccco3)n2)cc1 | -3 | -8 | -88 | 6 | 3 | 4.1 | 3188
CC(C)c1ccc(N=Nc2c(O)[nH]c(=O)[nH]c2=O)cc1 | -6 | -8 | -8 | -2 | 6 | 0.0 | 4475
Cc1ccc(-n2c3nc(=O)[nH]c(=O)c-3cc3c(C)nn(-c4ccccc4)c32)c(C)c1 | . | 2 | -10 | . | . | . | 9781
CCc1nc(SCC(=O)NCC2CCCO2)c2c(=O)n(C)c(=O)n(C)c2n1 (configuration not stated) | 6 | 16 | -14 | 1 | -5 | 2.2 | 4675
Cc1cc(C)cc(NC(=S)NC(=O)CCN2C(=O)c3ccccc3C2=O)c1 | 3 | -12 | 2 | . | . | -1.4 | 4592
COc1cccc(CNC(=O)C2CCCN(S(=O)(=O)c3c(C)[nH]c(=O)[nH]c3=O)C2)c1 (configuration not stated) | 6 | -18 | -35 | 16 | 10 | 3.2 | 6091
CN(C)c1cc[n+](Cc2c(Cl)cccc2Cl)cc1 | 10 | 6 | -13 | 8 | 2 | -0.6 | 4299
Cc1cccc(-n2c(N)cc(=O)nc2SCC(=O)Nc2nnc(C)s2)c1 | 5 | -6 | -23 | -6 | -2 | 5.9 | 3007
O=C(Nc1nc2c(s1)CN(Cc1ccccc1)CC2)c1c(F)cccc1F | -11 | -13 | -18 | -17 | 2 | -4.1 | 5829
COc1ccccc1NC(=O)COC(=O)C1=NN(c2ccccc2)C(=O)CC1 | 8 | . | 1 | 10 | 7 | 3.1 | 2984
CC(C)[C@H](NC(=O)OC(C)(C)C)C(=O)N/N=C/c1ccc2nccnc2c1 | . | 9 | -30 | . | . | . | 5505
CCOC(=O)N1CCN(Cc2nc3c(c(=O)[nH]c(=O)n3C)n2Cc2cc(C)ccc2C)CC1 | -1 | -19 | 7 | 1 | 6 | 3.6 | 20382*
Nc1nc(Cl)cc(Sc2ccc3ccccc3c2)n1 | 39 | -2 | -47 | . | . | -2.6 | 2659
CC(C)(C)N(Cc1ccccc1)C(=O)COC(=O)CNC(=O)c1ccco1 | . | 5 | -43 | . | . | . | 6028
CC(NC(=O)c1ccccc1SCC(=O)N1CCCC1)c1ccc(F)cc1 (configuration not stated) | 2 | -4 | -21 | 16 | 0 | 0.9 | 7120
O=C1CC(c2ccccc2)CN1Cc1ccccc1 (configuration not stated) | 2 | -8 | -11 | . | . | 3.0 | 11366
COCCN(C(=O)C(C)C)c1nnc(-c2ccc(C(C)(C)C)cc2)s1 | -8 | . | -21 | -6 | 4 | 15 | 3360
Cc1ccc(-c2nc(CS(=O)(=O)CC(=O)NC3CC3)c(C)o2)cc1 | -2 | -12 | -8 | -6 | -3 | 0.6 | 5605
C(#CCN1CCCCC1)COCc1ccccc1 | -1 | -1 | -9 | 6 | 20 | 1.7 | 4032
CC(=O)N1CCN(C(=O)c2ccc(S(=O)(=O)Nc3ccccc3C)cc2)CC1 | 2 | -7 | -18 | 4 | 2 | 2.1 | ?
COc1ccc(CC(=O)Nc2cc(Cl)ccc2O)cc1 | -19 | 1 | -11 | 0 | 7 | -1.8 | 9936
Cc1ccc(S(=O)(=O)NCc2ccc(C(=O)N(C)CCC#N)cc2)cc1 | 4 | 14 | -12 | -13 | -8 | 2.0 | 3527
CCc1ccc(-n2c(C)nc3cc(C(=O)NCc4cccnc4)ccc32)cc1 | -5 | 11 | -17 | 7 | 18 | 37 | 3155
O=C(NCCc1ccc(Cl)cc1Cl)c1ccc2nc[nH]c2c1 | -19 | 4 | -28 | 0 | -3 | -8.0 | 5419
COc1ccccc1-n1c(C)nnc1SCC(=O)Nc1cccc(C(C)=O)c1 | -6 | -11 | 5 | -2 | 15 | -0.7 | ?
COc1cc(C=NNC(=O)CCN2CCN(C)CC2)cc2c1OCO2 | 2 | . | . | 3 | 0 | 3.1 | .
CC(=O)Nc1ccc(OC(=O)c2ccc(Br)c([N+](=O)[O-])c2)cc1 | 3 | 0 | -5 | 13 | 7 | 1.7 | 2003
COc1ccc2[nH]c3c(c2c1)CCN1C(=O)C(CC(=O)NC(C)(C)C)C[C@H](C(=O)N2CCCCC2)[C@@]31CCc1ccccc1 (some centres not stated) | -5 | . | -6 | -10 | 4 | -2.2 | 3562
O=C(c1cccc(Cl)c1)N1CCN(Cc2ccccc2)CC1 | 8 | 0 | -22 | 13 | 1 | 5.4 | 3945
Cc1ccc2nc(NC(=O)C3CCN(S(=O)(=O)c4ccc5c(c4)oc(=O)n5C)CC3)sc2c1 | 10 | 18 | -7 | 0 | 2 | 2.8 | 4947
O=C(Nc1cccc(NC(=O)c2cccs2)c1)c1ccc2c(c1)OCO2 | -55 | 7 | -10 | 17 | 2 | -4.1 | 3372
COc1ccc(Nc2nc3ccc(C)cc3n3cnnc23)cc1Cl | . | -8 | -17 | . | . | . | 3924
O=C(CS(=O)(=O)c1ccc(F)cc1)NCCS(=O)(=O)c1ccccc1 | -1 | 0 | -9 | -10 | 12 | 2.1 | 3783
O=C(NCc1cccc(Cl)c1)c1cnccn1 | -6 | 5 | -24 | . | . | 2.5 | 10673
CCn1ccnc1CN(C)Cc1cn[nH]c1-c1ccc(F)cc1F | -2 | -6 | -6 | 3 | 8 | 0.4 | 3896
CC(=O)N1N=C(c2cccc([N+](=O)[O-])c2)OC1c1ccccc1Cl (configuration not stated) | 1 | -2 | -33 | 12 | 4 | 3.9 | 9591
CC12CCC(=O)C=C1CCC1C2CCC2(C)C(O)(C(=O)CO)CCC12O (configuration not stated) | 6 | . | -25 | 12 | 9 | 4.8 | 3918
Cc1nc2cc(OCc3cc(C(=O)NC(C)c4cnn(C)c4)no3)ccc2s1 (configuration not stated) | 3 | -4 | 2 | -2 | 7 | 1.2 | 6122
CN1C[C@@H]2C(c3ccc(Cl)nc3)C3(c4ccccc4)CC2(C3)[C@H]1c1ccccc1 (some centres not stated) | . | -3 | -7 | . | . | . | 4723

5 compounds already listed, arranged by count of non-hydrogen atoms, largest number first.
SMILES | ugtP null kill | BJeLR lethal | PrP UTR inh | Mtb hypoxia inh | Mtb hypoxia inh growth | RN4220 kill | Bead autofluor
Cc1nc2cc(OCc3cc(C(=O)NC(C)c4cnn(C)c4)no3)ccc2s1 (configuration not stated) | 3 | -4 | 2 | -2 | 7 | 1.2 | 6122
O=C(NCc1ccccn1)c1cc(-c2ccccc2Cl)nc2ccccc12 | 3 | -3 | -11 | 5 | 14 | 3.0 | 7822
O=C(CS(=O)(=O)c1ccc(F)cc1)NCCS(=O)(=O)c1ccccc1 | -1 | 0 | -9 | -10 | 12 | 2.1 | 3783
CN1C(=O)CSc2ccc(NC(=O)NCc3ccc(F)cc3)cc21 | 0 | 3 | 11 | 0 | 3 | 4.3 | 2053
COc1ccc(CC(=O)Nc2cc(Cl)ccc2O)cc1 | -19 | 1 | -11 | 0 | 7 | -1.8 | 9936
